BJeLR viability – BJeLR cell viability loss | BJeLR (HRASV12) viability, CellTiter-Glo ATP luminescence, 48 h; reference of the scale not given here | inhibition, % (concentration not given with the values) | 300,000 tested, 0.17% active | AID 1554;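 active = replicate mean above 50%; inconclusive = above 50% but judged a plate artefact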;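 also: 50 nL library stock added to about 25 µL; numbers are from one replicate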
RN4220 kill – S. aureus RN4220 growth inhibition; OD600, 16 h; inhibition, % (test concentration not listed); 330,000 tested, 0.33% active;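 active = z-score of -3 or lower and OD600 up to 0.18 on both plates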;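 also: plate controls were untreated cells for no effect and reference antibiotic for full effect; stock transfer was 100 nL into about 80 µL; one replicate is shown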
Autofluor counter – flagged as autofluorescent in microsphere protease counterscreen | compound autofluorescence counterscreen, microsphere flow cytometry; active compounds read high | fluorescence intensity (no concentration beside the values) | 360,000 tested, 3.1% active | AID 624483;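 active = at least 3 SD above the mean of all compounds, about 16000 in these data; inconclusive = too few beads counted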;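 also: 100 nL of 1 mM stock went into each well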
Mtb hypoxia inh – reduces hypoxia-regulated biosensor signal in M. tuberculosis; M. tuberculosis hypoxia-regulated fluorescent reporter, fluorescence; fluorescence inhibition, % (concentration not given with the values); 300,000 tested, 0.1% active; AID 1159583;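 active = 35 to 45% if threefold the growth effect, above 45% if 1.5-fold the growth effect; inactive = the rest, general growth blockers included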;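 also: wells of about 50 µL received 100 nL stock; 0% = vehicle wells and 100% = reference inhibitor wells; whole bacteria with a GFP reporter of the hypoxia response; strong numbers were not always called active; many hits fall short of the cut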
Sa ugtP lethal – compounds lethal to S. aureus RN4220 ugtP deletion mutant. OD600 growth, 16 h; some inactives read as strong as hits. growth inhibition, % (concentration not given with the values). 330,000 tested, 0.54% active. AID 1259309;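 active = z-score under -3 and OD600 up to 0.15 on both plates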;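 also: plate controls were untreated wells for no effect and antibiotic for full effect; wells of about 80 µL received 100 nL stock; the first replicate is given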
PrP 5UTR inh – inhibition of PrP 5' UTR reporter expression | cell-based PrP 5' UTR mRNA reporter, plate reader | 340,000 tested, 0.35% active | inhibition, % (test concentration not listed);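 active = every replicate at 50% or more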;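 also: 0 = median of the neutral control wells; tested in H4 reporter cells; numbers are from one replicate; inactives centre near -14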
Mtb hypoxia inh growth – second read-out of Mtb hypoxia inh, no call of its own (marks repeat the call); growth inhibition, %; measured here: M. tuberculosis growth (absorbance);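 0% = vehicle and 100% = reference antibiotic; read after six days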
* hit, by the source's call. Compounds as they come; any-hit rate near 4%.

How did CCOc1cc([N+](=O)[O-])cc(C=NNC(=O)c2c(-c3ccccc3)noc2C)c1O do in these assays?
RN4220 kill: 1.8; Mtb hypoxia inh: -3; Sa ugtP lethal: -5; Mtb hypoxia inh growth: -1

Results for COc1ccc(-c2nc3n(n2)C(c2cccnc2)C(C(N)=O)=C(C)N3)cc1 (stereo unspecified) ?
BJeLR viability: -10; RN4220 kill: 3.3; Autofluor counter: 8825; Mtb hypoxia inh: 8; Sa ugtP lethal: -9; PrP 5UTR inh: -13; Mtb hypoxia inh growth: 10

How did COc1ccc(CCNS(=O)(=O)c2ccc(N3CCCC3=O)cc2)cc1 do in these assays?
BJeLR viability: 5; RN4220 kill: 1.3; Autofluor counter: 4875; Sa ugtP lethal: 3; PrP 5UTR inh: -17

Results for COC(=O)c1c(C)nn(-c2ccc(F)c(Cl)c2)c1-c1cc(C)on1 ?
BJeLR viability: -6; RN4220 kill: 2.5; Autofluor counter: 5355; Mtb hypoxia inh: 3; Sa ugtP lethal: 3; PrP 5UTR inh: -16; Mtb hypoxia inh growth: 9

How did O=C(NCc1cccnc1)c1cc(S(=O)(=O)N2CCCC2)c(Cl)cc1Cl do in these assays?
BJeLR viability: -5; RN4220 kill: 1.3; Autofluor counter: 6122; Mtb hypoxia inh: -13; Sa ugtP lethal: -2; PrP 5UTR inh: -19; Mtb hypoxia inh growth: -3

How did CC(C)(C)c1ccc(NC(=O)CON=C(N)c2ccccc2)cc1 do in these assays?
RN4220 kill: 5.9; Autofluor counter: inconclusive; Mtb hypoxia inh: 11; Sa ugtP lethal: 9; PrP 5UTR inh: -5; Mtb hypoxia inh growth: 1

What do the screens show for `O=C1NC2(CCCCCC2)C(=O)N1CCS(=O)(=O)Oc1ccccc1`?
BJeLR viability: 7; RN4220 kill: 6.5; Autofluor counter: 4515; Mtb hypoxia inh: 15; Sa ugtP lethal: -3; PrP 5UTR inh: -18; Mtb hypoxia inh growth: 0

Results for COc1cc(NC(=O)CN2CCN(c3ccccc3F)CC2)c(C)cc1[N+](=O)[O-] ?
BJeLR viability: 0; RN4220 kill: 1.7; Autofluor counter: 1987; Mtb hypoxia inh: -1; Sa ugtP lethal: 4; PrP 5UTR inh: 4; Mtb hypoxia inh growth: -7

Results for O=C(CNc1cccc2ccccc12)c1ccc([N+](=O)[O-])cc1 ?
BJeLR viability: -8; RN4220 kill: 1.2; Autofluor counter: 2228; Sa ugtP lethal: -9; PrP 5UTR inh: -22

Results for CCOC(=O)c1ccccc1NC(=O)COC(=O)CCC(=O)c1ccccc1 ?
BJeLR viability: -2; RN4220 kill: 3.4; Autofluor counter: 6068; Mtb hypoxia inh: 3; Sa ugtP lethal: 2; PrP 5UTR inh: -7; Mtb hypoxia inh growth: 1

What do the screens show for `COC(=O)c1ccc(C(=O)OC)c(NC(=S)N2CCN(C(=O)C3CCCO3)CC2)c1` (stereo unspecified)?
BJeLR viability: -11; RN4220 kill: -0.6; Autofluor counter: 4663; Mtb hypoxia inh: 4; Sa ugtP lethal: 2; PrP 5UTR inh: 4; Mtb hypoxia inh growth: 7

What do the screens show for `COc1ccc(CCNC(C)C(=O)Nc2ccc(S(N)(=O)=O)cc2)cc1` (stereo unspecified)?
BJeLR viability: -1; RN4220 kill: -0.8; Autofluor counter: 4222; Mtb hypoxia inh: -1; Sa ugtP lethal: 2; PrP 5UTR inh: -23; Mtb hypoxia inh growth: 1

What do the screens show for `COc1ccc(CNC(=O)COC(=O)c2c(NC(C)=O)sc(C)c2C)cc1`?
RN4220 kill: 1.7; Autofluor counter: 3984; Mtb hypoxia inh: 14; Sa ugtP lethal: -1; PrP 5UTR inh: 5; Mtb hypoxia inh growth: 35

What do the screens show for `Nc1cc(-c2ccco2)no1`?
BJeLR viability: -1; RN4220 kill: 4.3; Autofluor counter: 3853; Mtb hypoxia inh: 2; Sa ugtP lethal: 8; PrP 5UTR inh: -9; Mtb hypoxia inh growth: 6

How did CC(=O)Nc1ccc(S(=O)(=O)NC(CC(=O)NCCC2=CCCCC2)C(C)C)cc1 (stereo unspecified) do in these assays?
BJeLR viability: 8; RN4220 kill: 0.9; Autofluor counter: 4577; Sa ugtP lethal: -5; PrP 5UTR inh: -33

Results for Cn1c(N2CCOCC2)cc(=O)n(C)c1=O ?
BJeLR viability: 9; RN4220 kill: 1.4; Autofluor counter: 4754; Mtb hypoxia inh: 7; Sa ugtP lethal: 0; PrP 5UTR inh: -9; Mtb hypoxia inh growth: 0

How did COc1ccc(CNCc2c(F)cccc2F)cc1OC do in these assays?
BJeLR viability: -1; RN4220 kill: -1.1; Autofluor counter: 4209; Mtb hypoxia inh: 10; Sa ugtP lethal: 4; PrP 5UTR inh: -56; Mtb hypoxia inh growth: -1

What do the screens show for `N=C1c2ccccc2-c2ccccc21`?
RN4220 kill: 2.6; Autofluor counter: 3587; Mtb hypoxia inh: 6; Sa ugtP lethal: 1; PrP 5UTR inh: -13; Mtb hypoxia inh growth: 7

How did O=[N+]([O-])c1ccccc1S(=O)(=O)N1CCc2ccccc2C1 do in these assays?
BJeLR viability: -1; RN4220 kill: 12; Autofluor counter: 4686; Mtb hypoxia inh: 9; Sa ugtP lethal: 0; PrP 5UTR inh: -25; Mtb hypoxia inh growth: 0

What do the screens show for `CCN(CC)CCCN(C(=O)c1ccc(OC)cc1)c1nc(-c2ccc(OC)cc2)cs1`?
BJeLR viability: 7; RN4220 kill: 1.1; Autofluor counter: 4034; Mtb hypoxia inh: 11; Sa ugtP lethal: 13; PrP 5UTR inh: -13; Mtb hypoxia inh growth: 22

Results for CCOc1ccc(Br)cc1S(=O)(=O)NCC(c1ccc(OC)cc1)N1CCOCC1 (stereo unspecified) ?
RN4220 kill: 8.5; Autofluor counter: 6478; Mtb hypoxia inh: 2; Sa ugtP lethal: 1; PrP 5UTR inh: -12; Mtb hypoxia inh growth: 0

Results for O=c1[nH]c2cc(Cl)ccc2n1-c1ccccc1 ?
BJeLR viability: 5; RN4220 kill: 8.8; Autofluor counter: 3151; Mtb hypoxia inh: 6; Sa ugtP lethal: 0; PrP 5UTR inh: -60; Mtb hypoxia inh growth: 9

How did Clc1cc(C=NNC2=NCCN2)cc(Cl)n1 do in these assays?
RN4220 kill: 1.3; Mtb hypoxia inh: 10; Sa ugtP lethal: 4; Mtb hypoxia inh growth: 2

What do the screens show for `COc1ccc(C(=O)NCc2ccc3c(c2)OCO3)cc1S(=O)(=O)NCc1ccc(Cl)cc1`?
BJeLR viability: -6; RN4220 kill: 3.8; Autofluor counter: 2024; Mtb hypoxia inh: -2; Sa ugtP lethal: 19; PrP 5UTR inh: -29; Mtb hypoxia inh growth: 4

Results for CCOC(=O)N1CCN(C(=O)c2cccc(N3C(=O)NC4CC3(C)Oc3ccccc34)c2)CC1 (stereo unspecified) ?
BJeLR viability: -8; RN4220 kill: 2.8; Autofluor counter: 6095; Mtb hypoxia inh: 3; Sa ugtP lethal: 9; PrP 5UTR inh: -4; Mtb hypoxia inh growth: -4

How did CCN(CC(=O)Nc1c(F)cccc1F)C(=O)/C=C/c1ccc2ccccc2n1 do in these assays?
BJeLR viability: 3; Autofluor counter: 4370; PrP 5UTR inh: 7

What do the screens show for `CCCCn1c(O)c(/C(CC)=N/N2CCCCC2c2cccnc2)c(=O)[nH]c1=S` (stereo unspecified)?
BJeLR viability: -4; RN4220 kill: -0.6; Autofluor counter: 2173; Mtb hypoxia inh: 8; Sa ugtP lethal: -8; PrP 5UTR inh: -25; Mtb hypoxia inh growth: 15

What do the screens show for `COc1ccc(Nc2nc3ccc(OC)cc3s2)cc1`?
BJeLR viability: 1; RN4220 kill: 19; Autofluor counter: 4099; Mtb hypoxia inh: -6; Sa ugtP lethal: 7; PrP 5UTR inh: -48; Mtb hypoxia inh growth: -3

Results for CCOc1ccccc1-c1nc2c(s1)CCc1onc(-c3ccc(OC)cc3)c1-2 ?
BJeLR viability: 5; RN4220 kill: -8.3; Autofluor counter: 4062; Mtb hypoxia inh: 3; Sa ugtP lethal: 1; PrP 5UTR inh: -14; Mtb hypoxia inh growth: 3

Results for COc1ccc(C=NNc2ccc(C(F)(F)F)cc2[N+](=O)[O-])cc1O ?
RN4220 kill: -1.6; Mtb hypoxia inh: 4; Sa ugtP lethal: -3; Mtb hypoxia inh growth: 9

Brought forward from above: three compounds, followed by the next part.
What do the screens show for `COc1ccc(Nc2nc3ccc(OC)cc3s2)cc1`?
BJeLR viability: 1; RN4220 kill: 19; Autofluor counter: 4099; Mtb hypoxia inh: -6; Sa ugtP lethal: 7; PrP 5UTR inh: -48; Mtb hypoxia inh growth: -3

Results for CCOc1ccccc1-c1nc2c(s1)CCc1onc(-c3ccc(OC)cc3)c1-2 ?
BJeLR viability: 5; RN4220 kill: -8.3; Autofluor counter: 4062; Mtb hypoxia inh: 3; Sa ugtP lethal: 1; PrP 5UTR inh: -14; Mtb hypoxia inh growth: 3

Results for COc1ccc(C=NNc2ccc(C(F)(F)F)cc2[N+](=O)[O-])cc1O ?
RN4220 kill: -1.6; Mtb hypoxia inh: 4; Sa ugtP lethal: -3; Mtb hypoxia inh growth: 9

How did O=C(N/N=C/c1cc(Br)ccc1O)c1ccccc1Cl do in these assays?
BJeLR viability: 12; Autofluor counter: 8646; PrP 5UTR inh: 13

How did CCOC(=O)c1c(-c2ccccc2)n(C)c2ccc(O)cc12 do in these assays?
BJeLR viability: -2; RN4220 kill: 3.1; Autofluor counter: 10740; Mtb hypoxia inh: 1; Sa ugtP lethal: -13; PrP 5UTR inh: -21; Mtb hypoxia inh growth: 13

What do the screens show for `CCN(C(=O)COC(=O)CC(C)c1ccccc1)c1c(N)n(Cc2ccccc2)c(=O)[nH]c1=O` (stereo unspecified)?
RN4220 kill: 6.3; Autofluor counter: 4742; Mtb hypoxia inh: 2; Sa ugtP lethal: 7; PrP 5UTR inh: 0; Mtb hypoxia inh growth: -2

How did CCC(=O)N(Cc1cc2c(C)ccc(C)c2[nH]c1=O)C1CCCCC1 do in these assays?
BJeLR viability: 4; RN4220 kill: 15; Autofluor counter: 2497; Mtb hypoxia inh: -3; Sa ugtP lethal: 1; PrP 5UTR inh: -9; Mtb hypoxia inh growth: 2

What do the screens show for `COC(=O)C1=C(c2ccc(S(C)(=O)=O)cc2)C[C@@H]2CC[C@H]1N2C(=O)NC(C)C`?
BJeLR viability: 3; Autofluor counter: 3447; PrP 5UTR inh: -3

What do the screens show for `COC(=O)C[C@H]1c2ccccc2S(=O)(=O)N1C(C)C`?
BJeLR viability: 3; Autofluor counter: 3425; PrP 5UTR inh: -17

What do the screens show for `CC(C)(C)c1ccccc1NC(=O)COC(=O)CN1C(=O)NC2(CCCC2)C1=O`?
BJeLR viability: -2; RN4220 kill: -0.8; Autofluor counter: 5279; Mtb hypoxia inh: -2; Sa ugtP lethal: 6; PrP 5UTR inh: -29; Mtb hypoxia inh growth: -10

How did CN(CC(=O)Nc1ccc2c(c1)OCCO2)CC(=O)Nc1ccc(F)c(F)c1F do in these assays?
RN4220 kill: 2.3; Autofluor counter: 3826; Mtb hypoxia inh: -12; Sa ugtP lethal: -1; PrP 5UTR inh: -8; Mtb hypoxia inh growth: 1

What do the screens show for `CC(=O)CSc1nnc(CN2C(=O)CSc3ccc(C(F)(F)F)cc32)n1C`?
BJeLR viability: -2; RN4220 kill: 5.8; Autofluor counter: 5785; Mtb hypoxia inh: 6; Sa ugtP lethal: 4; PrP 5UTR inh: -13; Mtb hypoxia inh growth: -3

How did CCC(=O)Nc1ccccc1C(=O)OCC(=O)c1ccccc1 do in these assays?
BJeLR viability: -3; RN4220 kill: 4.3; Autofluor counter: 5558; Mtb hypoxia inh: 8; Sa ugtP lethal: 8; PrP 5UTR inh: -93; Mtb hypoxia inh growth: 7

What do the screens show for `Cc1c(-c2ccc(OCc3ccccc3)cc2)nc2ccccc2c1C(=O)O`?
BJeLR viability: 4; RN4220 kill: 6.2; Autofluor counter: 4964; Mtb hypoxia inh: 7; Sa ugtP lethal: 8; PrP 5UTR inh: -20; Mtb hypoxia inh growth: 6

What do the screens show for `Cc1ccc(NC(=O)CC(C)CC(=O)NCc2ccccc2)cc1Cl` (stereo unspecified)?
BJeLR viability: 6; RN4220 kill: 3.4; Autofluor counter: 4029; Mtb hypoxia inh: -7; Sa ugtP lethal: -7; PrP 5UTR inh: -16; Mtb hypoxia inh growth: 2

Assay outcomes as filed in PubChem BioAssay.
